A488 autofl: A488 region autofluorescence. compound autofluorescence, A488 spectral region, dye equivalency; stronger effect = higher value. max dye equivalency, M. 59,000 tested, 0.1% active; active = above 10 nM dye equivalent; inconclusive = 1 to 10 nM; inactive = 1 nM or less; about half of its hits are not listed in these tables;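 also: highest value over a series up to 38 µM; compound alone in buffer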
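Autofluorescence read at ex 480/em 540 nm after 15 min RT in 100 mM Tris pH 8.0; compound signal normalized to A488 standard series on each plate, reported as dye-equivalent concentration at each test concentration.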
A647 fluor: compound fluoresces in the A647 spectral region. Compound fluorescence, A647 channel (570/671 nm), Tris buffer. max dye-equivalent concentration, M. 59,000 tested, under 10 active; active means above 1 µM dye equivalent; inconclusive means 0.1 to 1 µM; inactive means 0.1 µM or less;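 also: values scaled relative to a standard on each plate; highest value over a series up to 38 µM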
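Buffer was dispensed, compounds and Alexa 647 standards were pin-transferred, and plates sat 15 min at room temperature. Intensity at 570/671 nm was then converted to dye-equivalent concentration using the plate's A647 standard curve.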
TSHR agonist: agonists of human thyroid stimulating hormone receptor. P16473. HEK293-CNG-TSHR cells (CNG channel as cAMP sensor), membrane potential dye, cAMP. Potency, µM (doses to about 57.1 µM), for inactives: at the highest dose activation, usual class: activators. 73,000 tested, 0.48% active; active = well fitted activation curve of enough size with the parental cells flat; inconclusive = any curve in the parental cells; inactive = parental cells flat and receptor cells flat or falling; also: potency is read from the fitted curve at half-maximal effect; % of control where 0% means no effect; weak receptor curves with flat parental cells got no call and are not listed
Target sequence (P16473 whole entry, looked up): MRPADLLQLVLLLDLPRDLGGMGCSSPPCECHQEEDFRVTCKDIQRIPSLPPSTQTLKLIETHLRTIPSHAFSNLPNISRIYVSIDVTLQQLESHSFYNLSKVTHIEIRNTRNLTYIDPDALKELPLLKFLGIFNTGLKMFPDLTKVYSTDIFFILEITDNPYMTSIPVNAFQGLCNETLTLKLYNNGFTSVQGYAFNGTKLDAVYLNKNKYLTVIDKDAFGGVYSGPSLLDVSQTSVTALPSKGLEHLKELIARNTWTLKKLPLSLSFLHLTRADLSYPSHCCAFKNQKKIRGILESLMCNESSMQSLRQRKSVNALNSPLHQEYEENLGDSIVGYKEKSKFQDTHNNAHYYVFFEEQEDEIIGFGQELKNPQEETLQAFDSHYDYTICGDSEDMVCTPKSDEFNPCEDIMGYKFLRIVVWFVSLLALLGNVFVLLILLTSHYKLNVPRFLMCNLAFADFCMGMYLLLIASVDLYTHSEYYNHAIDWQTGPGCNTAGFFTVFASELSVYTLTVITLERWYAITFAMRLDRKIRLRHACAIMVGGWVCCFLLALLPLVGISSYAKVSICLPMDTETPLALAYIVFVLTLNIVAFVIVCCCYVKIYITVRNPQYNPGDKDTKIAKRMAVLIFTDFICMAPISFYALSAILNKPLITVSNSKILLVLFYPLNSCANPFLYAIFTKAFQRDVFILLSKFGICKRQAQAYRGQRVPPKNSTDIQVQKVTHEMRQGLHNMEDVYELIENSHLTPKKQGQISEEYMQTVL
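cAMP rise detected as CNG-channel membrane depolarization by fluorescent dye (emission 590 nm), 30 min after compound, following 60 min dye loading containing 100 uM RO 20-1724 at room temperature. Cells: TSHR/CNG HEK 293, with parental CNG HEK 293 as control.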
Resorufin fluor: compounds fluorescent in resorufin spectral region; Compound fluorescence, resorufin region 547/598 nm, buffer; stronger effect = higher value; max dye-equivalent concentration, M; 59,000 tested, 0.04% active; active = above 10 nM dye equivalent; inconclusive = 1 to 10 nM; inactive = 1 nM or less; a few of its hits are not listed in these tables; also: highest value over a series up to 38 µM
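Read-out: intrinsic compound fluorescence at ex 547/em 598 nm after 15 min at RT in pH 8.0 Tris (100 mM). Values expressed as resorufin-equivalent concentration from per-plate standard series.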
AID923: qHTS Assay for Allosteric/Competitive Inhibitors of Caspase-1: Spectroscopic Profiling in AFC Spectral Region; compound fluorescence, AFC spectral region (405/520 nm); almost no hit is shown here; Potency, µM (top dose mostly 57.5 µM), without a hit: at the top dose fluorescence increase, hits mostly activators; 75,000 tested, 1.1% active; AID 923, 2007; active = well fitted activation curve with a large enough effect; inconclusive = small, poorly fitted or top-dose-only effect;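 also: potency is read from the fitted curve at half-maximal effect; 0% is about no effect; scaled to a free AFC standard on each plate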
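Compound autofluorescence profiled at 405 nm ex/520 nm em during kinetic caspase 1 run (50 nM enzyme, 5 uM Ac-WEHD-AFC, HEPES pH 7.5, 10 mM DTT). Titration up to 57 uM; baseline from regression intercept, normalized to AFC standard curve.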
Starred values were filed as active, the others as inactive; i = inactive; ? = inconclusive; · = not tested or not shown; & = joins results of further samples; [ ] = dose if it differs, or a comment. An excerpt (hit frequency here may not be typical).

Every second line gives: A488 autofl | A647 fluor | TSHR agonist | Resorufin fluor | AID923
COc1ccc(-c2nc3ccccc3s2)cc1O
    i | 1.3e-09 | -3% | i | 0.0%
C[C@H](NC[C@H](O)CP(=O)(O)CC1CCCCC1)c1ccc(Cl)c(Cl)c1
    · | · | 10% | · | -1.9%
CCOC(=O)C1=C(C)N(C2CCCCC2)C(=O)C1
    · | · | ? | · | -1.6%
Oc1ccc2ccccc2c1C=NC12CN3CCN(CN(C3)C1)C2
    i | 1e-09 | · | i | ·
CNC(=O)CN(C1CCCCC1)S(=O)(=O)c1ccc(F)cc1
    i | 8.9e-09 | 29% | i | 0.6%
CCCCOP(=O)(c1ccc(N(C)C)cc1)C(O)c1ccccc1F (stereo not drawn)
    i | 7.8e-09 | 23% | i | -1.3%
O=C(CSc1nc2ccccc2[nH]1)Nc1cc(C(F)(F)F)ccc1N1CCOCC1
    i | 3.2e-08 | 15% | i | 0.0%
Cc1cc(C)nc(SCc2nnc(SCc3ccccc3Cl)o2)n1
    i | 2.9e-08 | ? | i | -1.0%
COc1ccc(-c2nnc(SCC(=O)Nc3ccccc3OC)o2)cc1
    i | 1.4e-08 | 13% | i | -0.3%
CC(C)CNC(=O)C1CCN(c2ccc(S(=O)(=O)N3CCOCC3)cc2)CC1
    i | 2.3e-08 | 22% | i | 2.3%
CC(=O)N1CCN(c2ccc(NC(=O)c3ccc4c(c3)OCO4)cc2)CC1
    i | 6.3e-09 | -8% | i | -1.3%
CN(C)c1ncnc2ccc(-c3ccc4c(c3)OCO4)cc12
    i | 2.6e-08 | ? | i | 1.5%
CCOC(=O)C1=C(C)N(C)C(=O)NC1c1cc2c(cc1Br)OCO2 (stereo not drawn)
    i | 1e-09 | · | i | 1.7%
CSc1nc2sc3c(c2c2nnnn12)CCC3
    i | 1e-09 | · | i | ·
CC(=O)O[C@H]1C[C@@H]2CC[C@@H]3[C@H](CC[C@@]4(C)[C@H]3C[C@H]([N+]3(C)CCCCC3)[C@@H]4OC(C)=O)[C@@]2(C)C[C@@H]1[N+]1(C)CCCCC1
    i | 2.9e-09 | · | i | ·
O=C(c1ccc2c(c1)OCCO2)N(c1ccccn1)C1CCCCC1
    i | 1.5e-08 | 0% | i | -2.8%
CCOc1cc(C)nc(Oc2ccc(=O)[nH]n2)n1
    i | 1.4e-09 | 0% | i | 3.2%
CCOC(=O)c1sc(NC(=O)CSc2nnc(-c3ccco3)n2CC)c(C(=O)OCC)c1C
    i | 3.5e-08 | ? | i | 0.5%
COc1ccc(-c2noc(C3CCCN(S(=O)(=O)c4cccc(Cl)c4C)C3)n2)cc1OC (stereo not drawn)
    i | 5.1e-08 | 21% | i | -0.4%
Nc1cc(S(=O)(=O)O)ccc1O
    · | · | 0% | · | 0.3%
CCOC(=O)c1ccc(NC(=O)c2cc3ccccc3o2)cc1
    · | · | ? | · | -2.2%
O=c1cnc2cnc(Nc3ccccc3)nc2n1C[C@H]1CCCO1
    i | 1e-09 | 13% | i | 2.0%
Nc1ncnc2nc(-c3ccc(N4CCOCC4)nc3)cc(-c3cccc(Br)c3)c12
    · | · | ? | · | 32µM*
CCOC(=O)C1C(=O)CC(C)(O)C(C(=O)OCC)C1c1ccc(OCC)cc1 (stereo not drawn)
    · | · | ? | · | 1.9%
NC(=O)Cn1nnc(-c2ccc(C(F)(F)F)cc2)n1
    i | 1.8e-08 | 1% | i | 0.4%
Cc1ccc(-c2cc(C(F)F)nc(NCC3CCCO3)n2)cc1 (stereo not drawn)
    i | 1e-09 | · | i | 1.8%
CCN1CCN(S(=O)(=O)c2ccc(Br)s2)CC1
    i | 2.2e-08 | 3% | i | 0.1%
O=C(Nc1ccccc1NC(=O)c1c(F)c(F)c(F)c(F)c1F)c1c(F)c(F)c(F)c(F)c1F
    i | 1.7e-08 | 2% | i | 0.4%
Cc1ccc2c(c1)c(C)c(C)n2CC(O)Cn1nnc2ccccc21 (stereo not drawn)
    i | 5.8e-08 | -11% | i | 0.1%
Cc1cc(S(=O)(=O)NCC(C)C)ccc1OCC(=O)NCc1ccccn1
    i | 1.7e-08 | 8% | i | -4.6%

Sorted by SMILES length (rising): part of the list above
Every second line gives: A488 autofl | A647 fluor | TSHR agonist | Resorufin fluor | AID923
Nc1cc(S(=O)(=O)O)ccc1O
    · | · | 0% | · | 0.3%
CCOC(=O)C1=C(C)N(C2CCCCC2)C(=O)C1
    · | · | ? | · | -1.6%
CN(C)c1ncnc2ccc(-c3ccc4c(c3)OCO4)cc12
    i | 2.6e-08 | ? | i | 1.5%
CNC(=O)CN(C1CCCCC1)S(=O)(=O)c1ccc(F)cc1
    i | 8.9e-09 | 29% | i | 0.6%
Cc1cc(S(=O)(=O)NCC(C)C)ccc1OCC(=O)NCc1ccccn1
    i | 1.7e-08 | 8% | i | -4.6%
CC(C)CNC(=O)C1CCN(c2ccc(S(=O)(=O)N3CCOCC3)cc2)CC1
    i | 2.3e-08 | 22% | i | 2.3%

The listing picks up, starting 2 compounds before the break.
Every second line gives: A488 autofl | A647 fluor | TSHR agonist | Resorufin fluor | AID923
Cc1ccc2c(c1)c(C)c(C)n2CC(O)Cn1nnc2ccccc21 (stereo not drawn)
    i | 5.8e-08 | -11% | i | 0.1%
Cc1cc(S(=O)(=O)NCC(C)C)ccc1OCC(=O)NCc1ccccn1
    i | 1.7e-08 | 8% | i | -4.6%
COc1ccc(NC(=O)CN2CCN(CC(=O)Nc3ccccc3Cl)CC2)cc1Cl
    i | 1e-09 | -1% | i | -0.1%
c1ccc(-c2cnc(CSc3ncnc4sccc34)o2)cc1
    i | 2e-08 | ? | i | -2.1%
Cc1noc(C)c1S(=O)(=O)NC1CCCc2ccccc21 (stereo not drawn)
    i | 1e-09 | 16% | i | -1.0%
Cc1cc2nc(SCC(=O)Nc3nonc3C)c3c(c2cc1C)CCCC3
    i | 6.3e-09 | 2% | i | -4.4%
CCOC(=O)/C(C#N)=C(/C)c1ccc(OC)cc1
    · | · | 10% | · | -0.1%
O=C(c1cc2n(n1)C(C(F)(F)F)CC(c1ccc(Cl)cc1)N2)N1CCCC1 (stereo not drawn)
    i | 1e-09 | -7% | i | 0.2%
O=C(NCCC1=CCCCC1)C1CCN(S(=O)(=O)c2cccc3nsnc23)CC1
    i | 1e-09 | 4% | i | 0.3%
O=C(CSC1=NCCS1)NCc1ccco1
    · | · | -3%[11.4 µM] | · | 1.0%
COc1ccc(C(CNC(=O)CN2C(=O)NC3(CC(C)CC(C)(C)C3)C2=O)N2CCOCC2)cc1 (stereo not drawn)
    i | 1.5e-08 | ? | i | -0.2%
COc1ccc2c(c1)-c1nc(NC(=O)c3cccs3)sc1CC2
    · | · | -7% | · | 1.2%
Cc1ccc2c(c1)N(CC(=O)Nc1ccc3c(c1)OCCO3)C(=O)CO2
    i | 1.2e-08 | ? | i | 0.7%
Cc1ccc(-c2nc(-c3ccccn3)no2)cc1
    · | · | 7% | · | -2.7%
CCOC(=O)N1CCC(NC(=O)C2CCN(S(=O)(=O)N3CCC(C)CC3)CC2)CC1
    i | 1e-09 | 3% | i | -1.2%
O=C(Cn1nnc2ccccc21)NC1CCCCC1
    i | 1.6e-08 | -1% | i | -1.3%
CC(C)C(NS(=O)(=O)c1ccc2c(c1)oc(=O)n2C)C(=O)N1CCN(c2ccccc2F)CC1 (stereo not drawn)
    · | · | 26% | · | -1.0%
O=C(NCC1CC1)[C@H]1C[C@@H]1[C@H](NP(=O)(c1ccccc1)c1ccccc1)c1ccccc1
    · | · | ? | · | -0.4%
COc1ccc(CCNC(=O)c2c[nH]c3ccccc3c2=O)cc1OC
    i | 8.4e-09 | -4% | i | 0.9%
O=C(COc1ccc(F)cc1)OCCN1CCOCC1
    i | 8.9e-08 | · | i | ·
CC(C)CCNC(=O)CN(CCCN1CCOCC1)C(=O)Cn1nnc(-c2ccc(F)cc2)n1
    i | 3.6e-08 | ? | i | -0.6%
COC(=O)c1nnc(-c2ccccc2)c(-c2ccccc2)n1
    i | 1.2e-08 | -2% | i | -2.8%
COC(=O)c1c(NC(=O)CN2CCN(C(=O)c3ccco3)CC2)c2c(C)cccc2n1C
    i | 1e-09 | · | i | -0.4%
COC(=O)[C@@H](NC(=O)NC1CCCc2ccccc21)C(C)C (stereo partly drawn)
    i | 2.3e-08 | ? | i | 1.1%
COc1cccc(Nc2ncc3ncc(=O)n(CCC#N)c3n2)c1
    i | 1e-09 | -3% | i | -2.3%
CC1(C)CC(C(=O)Nc2nccs2)CCO1 (stereo not drawn)
    i | 1.7e-08 | -9% | i | -2.7%
O=C(CSc1n[nH]c(-c2cccs2)n1)N1CCN(S(=O)(=O)c2ccccc2)CC1
    i | 2.2e-09 | 5% | i | -2.3%
CCN1C(=O)/C(=C2/C=CC=CN2C)SC1=S
    · | · | -1%[11.4 µM] | · | 4.2%
CCOCCCNC(=O)C1CCN(S(=O)(=O)N2CC(C)CC(C)C2)CC1 (stereo not drawn)
    i | 1e-09 | 18% | i | 0.9%
NC(=O)c1ccccc1[N+](=O)[O-]
    · | · | -3% | · | 2.3%
COC(=O)c1[nH]c(=O)c2ccccc2c1OCc1ccccc1
    i | 1e-09 | ? | i | 0.7%
O=C(COc1cc(Cl)c(Cl)cc1Cl)NCCN1CCOCC1
    i | 4.5e-08 | 6% | i | -0.7%

The listing continues.
Every second line gives: A488 autofl | A647 fluor | TSHR agonist | Resorufin fluor | AID923
c1csc(CNc2cc(-c3ccoc3)ncn2)c1
    i | 9.9e-09 | 0% | i | 6.2%
CCOC(=O)C1CCCCN1Cc1ccccc1C(F)(F)F (stereo not drawn)
    i | 2.3e-08 | 15% | i | -1.4%
Oc1ccc(COCc2ccccc2)c2cccnc12
    i | 4.7e-09 | ? | i | -2.6%
Fc1ccc(N2CCN(c3nc(-c4ccco4)cc(C(F)(F)F)n3)CC2)cc1
    i | 4e-08 | ? | i | -1.3%
CCOC(=O)c1sc(N)c(C#N)c1CSc1nc2ccc(OCC)cc2[nH]1
    i | 6.6e-09 | -1% | i | 0.3%
O=C(CSc1nnc(-c2ccccc2Br)o1)Nc1cccc2ccccc12
    i | 1e-09 | ? | i | -0.1%
CC(=O)NNC(=O)N1Cc2ccccc2Oc2ccc(Cl)cc21
    i | 2.8e-08 | 6%&13% | i | -1.5%
Cc1cc(C)n(-c2nncc(-c3ccccc3)n2)n1
    · | · | -2% | · | 0.9%
O=S(=O)(c1cccc2cccnc12)n1cnc2ccccc21
    i | 1.6e-08 | -12% | i | -0.5%
O=C(CN1CCCN(S(=O)(=O)c2ccc(F)cc2)CC1)Nc1ccccc1Br
    i | 3.6e-08 | ? | i | -1.0%
O=c1cc(N2CCCCC2)nc2n1CCCS2
    i | 1.5e-08 | · | i | ·
CCN(CC)CCn1cnc2c([nH]c3cccc(OC)c32)c1=O
    i | 4e-08 | 14% | i | 1.9%
Cc1ccc(NS(=O)(=O)c2ccc(CCC(=O)N3CCOCC3)cc2)cc1
    i | 1.4e-09 | 6% | i | 0.2%
CN1CCc2c(sc3nc(SCC(=O)N4CCOCC4)nc(N)c23)C1
    i | 3.9e-09 | 20% | i | -0.3%
CN(C)C(=O)CSc1nnc(-c2cccnc2)n1-c1ccccc1
    · | · | 7% | · | -1.4%
CCc1c(C)c2ccc(OCC(=O)OC)cc2oc1=O
    i | 1e-09 | 21% | i | -3.1%
O=C1CCCN1CC(CN1CCOCC1)Sc1nc2ccccc2c(=O)n1-c1ccccc1 (stereo not drawn)
    i | 2.9e-08 | · | i | -1.0%
CCCN1C(=O)c2cc(C(=O)NCc3cccs3)ccc2C1O (stereo not drawn)
    · | · | -4% | · | -0.2%
CC(CCc1ccco1)NC(=O)Cn1ncc2c(=O)oc3ccccc3c21 (stereo not drawn)
    · | · | 17% | · | 4.0%
CC(C)=C1C2CC2C2C(C(=O)O)C12 (stereo not drawn)
    i | 3.3e-08 | 0% | i | -0.3%
O=C(Nc1cccnc1)c1cnn2cccnc12
    i | 1e-09 | -1% | i | -0.6%

Source: PubChem (National Center for Advancing Translational Sciences (NCATS))
